From PubChem
HSD17B inhib = qHTS Assay for Inhibitors of HSD17B4, hydroxysteroid (17-beta) dehydrogenase 4 | 3-hydroxyacyl-CoA dehydrogenase type-2 (Homo sapiens), Q99714 | recombinant HSD17B10, NADH fluorescence kinetic; many of its hits are not listed in these tables | Potency, µM (highest dose often 57.1 µM), without a hit: top-dose activity change, negative = inhibition, actives largely listed as inhibitors | 75,000 compounds, 7.6% hits | AID 893, 2007; active = well fitted inhibition curve with a large enough effect; inconclusive = small, poorly fitted or top-dose-only effect; inactive = no such curve, though single readings can be large or run the other way;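 note: the protocol describes HADH2 (HSD17B10) and not the HSD17B4 of the title; nearly all actives have a fitted effect of over 70% in size; most hits overshoot -100% by far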
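20 nM HADH2, pH 9.0 Tris/Tween; cpd preinc 15 min RT; start w/ 1 mM NAD+ + 90 uM b-hydroxybutyryl-CoA; kinetic fluor ex360/em450 q30s x 4 min; delta last-first.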
The depositor's hits bear a star; [ ] = remark or other dose. % is set by controls: 0 for no effect and ±100 for the full control effect; potency is the fitted concentration of half-maximal effect. Some of the compounds tested. The share of hits here may be higher or lower than overall.

For CC(CCc1ccccc1)NC(=O)CSc1nnnn1C (stereo not drawn) the results were HSD17B inhib 11.3%.
For CC(=O)n1cc(-c2ccncc2)c2ccccc21 the results were HSD17B inhib 6.5%.
`COCCn1c(=O)c(C)nc2cnc(N3CCNCC3)nc21` gave HSD17B inhib 31.6µM*.
CN1CCN(S(=O)(=O)c2ccc3ccccc3c2)CC1 was read as HSD17B inhib -1.6%.
Screening Cc1ccc(N(CC(N)=O)C2SC(=O)N(C)C2=O)cc1 (stereo not drawn) returned HSD17B inhib -3.0%.
COc1ccc(-c2cc(C(=O)N3CCCc4ccccc43)no2)cc1 was read as HSD17B inhib 9.8%.
For CCN1CC=C2C(C#N)=C(N)C(C#N)(C#N)C(CCc3ccccc3)C2C1 (stereo not drawn) the results were HSD17B inhib 25.1µM*.
Cn1cccc1C(C(=O)NC1CCCCC1)N(C(=O)Cc1cccs1)C1CC1 (stereo not drawn) was read as HSD17B inhib 18.2%.
`Cc1ccc(C(=O)c2cc(C)sc2NC(=O)CN2CCN(C(=O)c3ccco3)CC2)cc1` gave HSD17B inhib inconclusive.
For Cc1ccc(CN(C(=O)Cn2nnc3ccccc32)C(C(=O)NCc2ccco2)c2cccs2)cc1 (stereo not drawn) the results were HSD17B inhib -8.3%.
Screening Cc1nc2cnc(Nc3ccccc3)nc2n(CCC#N)c1=O returned HSD17B inhib -2.6%.
Screening Cc1cc(C(=O)NC(C)c2ccc3c(c2)OCO3)cs1 (stereo not drawn) returned HSD17B inhib -5.0%.
Screening CCC(C)Sc1nc(O)cc(=O)[nH]1 (stereo not drawn) returned HSD17B inhib 3.3%.
O=C(CSc1ncnc2c1nnn2-c1ccc(F)cc1)N1CCN(c2ccccc2)CC1 was read as HSD17B inhib 9.5%.
`C=CCN1C(=O)C2(C(C(=O)c3ccc(C)o3)=C(O)C(=O)N2CCCN2CCOCC2)c2ccccc21` (stereo not drawn) gave HSD17B inhib -2.3%.
`CC(=O)C1=C(O)C(=O)N(c2nnn(C)n2)C1c1cccs1` (stereo not drawn) gave HSD17B inhib -5.4%.
`CN(C)CCCN1c2ccc(O)cc2Sc2ccc(Cl)cc21` gave HSD17B inhib 4.9%[11.4 µM].
CC1CCC(NC(=O)C2CCN(C(=O)NC3CCCCC3)CC2)CC1 (stereo not drawn) was read as HSD17B inhib 14.3%.
For O=C(NC1CCCC1)c1ccc(COCC(F)(F)C(F)F)o1 the results were HSD17B inhib 0.1%.
`O=S(=O)(c1cnc[nH]1)N1CCc2ccccc21` gave HSD17B inhib 5.5%.
CCOCCOC(=O)C1=C(C)N(C)C(=O)NC1c1ccccc1Cl (stereo not drawn) was read as HSD17B inhib 2.2%.
For CC1CCCC(N2C(=O)NC(NC(=O)c3ccco3)(C(F)(F)F)C2=O)C1C (stereo not drawn) the results were HSD17B inhib -3.3%.
For COc1ccc(-c2noc(C3CCCN(S(=O)(=O)c4cccc(Cl)c4)C3)n2)cc1OC (stereo not drawn) the results were HSD17B inhib -7.1%.
COC(=O)C1=C(C)N(c2cccc(Cl)c2)C(=O)C1 was read as HSD17B inhib 0.4%.
COc1ccc(OC)c(NC(=O)NCc2ccc(F)cc2)c1 was read as HSD17B inhib 3.0%.
Screening COc1ccc(COC(=O)N/N=C2/C[C@@H](O)[C@@H](O)[C@@H]3[C@@H]4C(=O)N(Cc5ccc6c(c5)OCO6)C(=O)[C@H]4CC[C@@H]23)cc1 returned HSD17B inhib 2.9%[11.4 µM].
Screening O=C(COC(=O)c1ccco1)Nc1ccc(Br)cc1 returned HSD17B inhib 4.4%.
O=c1oc(-c2ccccc2)nc2c1cnn2-c1ccccc1 was read as HSD17B inhib 33.5%[activator].
For CCN(CC)c1ccc(CNc2ccc(Br)cn2)cc1 the results were HSD17B inhib 4.0%.
Screening CCOC(=O)c1cccc(C(=O)OCC)n1 returned HSD17B inhib -3.2%.
O=C(O)C1CCCN1S(=O)(=O)c1ccc2ccccc2c1 (stereo not drawn) was read as HSD17B inhib 7.1%.
For Cc1onc(-c2ccccc2)c1C(=O)N1CCN(CCc2ccccc2)CC1 the results were HSD17B inhib 5.6%.
`CC(C)C(NC(=O)C1CCCCC1)C(=O)Nc1ccccn1` (stereo not drawn) gave HSD17B inhib 8.2%.
Screening CCCN(CCC)S(=O)(=O)c1cccc(C(=O)Nc2ccc3c(c2)OCO3)c1 returned HSD17B inhib 0.3%.
`CCN(CCCNC(=O)COc1cc(=O)n(C)c2ccccc12)c1cccc(C)c1` gave HSD17B inhib -8.5%.
Screening COCc1cc(C)n(CC(=O)Nc2ccccc2C(=O)OC)c(=O)c1C#N returned HSD17B inhib 31.6µM*.
`O=S(=O)(NCCO)c1cccc2cccnc12` gave HSD17B inhib 10.3%.
For CCOC(=O)C1CCCN(c2nnnn2-c2ccccc2)C1 (stereo not drawn) the results were HSD17B inhib 11.3%.
Screening C=CCOc1ccc(/C(O)=C2/C(=O)C(=O)N(CCCn3ccnc3)C2c2cccs2)cc1 (stereo not drawn) returned HSD17B inhib -25.0%.
CN(C)CCCN1CCC2(CCC(C(C)(C)C)CC2)CC1 was read as HSD17B inhib -3.1%[11.4 µM].
For COc1cccc(N2CCN(Cc3nc(N)nc(N4CCCc5ccccc54)n3)CC2)c1 the results were HSD17B inhib -3.3%.
O=C(CCS(=O)(=O)c1cccc2nsnc12)N1CCN(Cc2ccc3c(c2)OCO3)CC1 was read as HSD17B inhib -4.3%.
`CN(C)c1ccc(NC(=O)c2cccc(N3C(=O)C4C5C=CC(C5)C4C3=O)c2)cc1` (stereo not drawn) gave HSD17B inhib 2.1%.
Cc1nn(-c2ccc(Cl)cc2)c2sc(C(=O)N3CCN(C(=O)c4ccco4)CC3)cc12 was read as HSD17B inhib 3.0%.
CCOc1cc(S(=O)(=O)N(CC)CC)ccc1Br was read as HSD17B inhib 2.0%.
`Cc1oc(-c2cccc(Cl)c2)nc1CN1CCCC(C(=O)NCCCN2CCOCC2)C1` (stereo not drawn) gave HSD17B inhib 7.0%.
`COCCOC(=O)c1[nH]c2c(c1C)C(=O)CC(c1ccco1)C2` (stereo not drawn) gave HSD17B inhib 25.1µM*.
`CCCCC(=O)Nc1ccc(NC(=O)CCCC)nc1` gave HSD17B inhib 6.6%.
For CCN(Cc1nc2cc(OC)c(OC)cc2c(=O)[nH]1)C(=O)c1ccc(S(=O)(=O)N(C)C)cc1 the results were HSD17B inhib 1.8%.
`O=C1CSC(=S)N1c1cccnc1` gave HSD17B inhib -8.0%.
`Cc1nc2cc(NC(=O)NCCC3=CCCCC3)ccc2o1` gave HSD17B inhib 5.6%.
For O=C(OCc1cc(=O)n2cc(Br)ccc2n1)C1COc2ccccc2O1 (stereo not drawn) the results were HSD17B inhib -14.8%.
Screening Cc1ccc(-c2nc(C3CCCN(S(=O)(=O)c4ccc(C(F)(F)F)cc4)C3)no2)cc1 (stereo not drawn) returned HSD17B inhib 5.8%.
For C=CCOC(=O)C(C(=O)CC)C(NC(=O)OC)c1ccc(F)cc1 (stereo not drawn) the results were HSD17B inhib 11.6%[11.4 µM].
O=C(O)/C(Cc1ccc([N+](=O)[O-])cc1)=N/O was read as HSD17B inhib 5.6%[11.4 µM].
O=C(CCC1CCCC1)N1CCN(C(=O)C2CC2)CC1 was read as HSD17B inhib -12.5%.
O=C(NCc1ccco1)C1CCN(C(=O)Cc2ccccc2)CC1 was read as HSD17B inhib -4.1%.
Screening Cc1nc(NC2CCCCC2)c2nc(-c3ccccc3)n(CCN3CCCCC3)c2n1 returned HSD17B inhib 12.6µM*.
Screening Cc1ccc(CNC(=O)CN2CCC(C(N)=O)CC2)cc1 returned HSD17B inhib 2.0%.
For Nc1nncn1C(=O)c1cccs1 the results were HSD17B inhib 3.5%.
COc1ccccc1N1CCN(C(CNS(=O)(=O)c2cccs2)c2cccnc2)CC1 (stereo not drawn) was read as HSD17B inhib 4.5%.
Screening COCCn1c(=O)c(-c2ccccc2)nc2cnc(OC)nc21 returned HSD17B inhib 31.6µM*.
For CCCCC(=O)NCCNc1nc2c(c(=O)n(C)c(=O)n2C)n1Cc1ccccc1 the results were HSD17B inhib -0.9%.
`COc1cc(C(=O)Nc2nnc(C)s2)cc(OC)c1OC` gave HSD17B inhib -3.7%.
Screening COc1ccc(N2CCCCn3c2nc2c3c(=O)n(C)c(=O)n2C)cc1 returned HSD17B inhib 6.2%.
For CC(C)Oc1ccc(C(=O)NC2CCS(=O)(=O)C2)cc1 (stereo not drawn) the results were HSD17B inhib 4.4%.
COc1ccc(CC(=O)c2ccc(O)cc2O)cc1OC was read as HSD17B inhib -8.1%.
COc1ccc(OCc2nc(C#N)c(N3CCN(c4ccc(OC)cc4)CC3)o2)cc1 was read as HSD17B inhib -0.4%.
COc1ccc(NC(=O)C2CCCN(S(=O)(=O)c3cccc4nonc34)C2)c(OC)c1 (stereo not drawn) was read as HSD17B inhib 11.0%.
CCOc1ccc(OCC)c(S(=O)(=O)NCc2cccnc2)c1 was read as HSD17B inhib 2.5%.
Screening Cc1noc(C)c1CSc1nnc2ccc3ccccc3n12 returned HSD17B inhib -0.8%.
`CCn1c(-c2cc(OC)ccc2OC)csc1=Nc1c(C)n(C)n(-c2ccccc2)c1=O` gave HSD17B inhib 2.8%.
Screening Cc1ccc(C2CC(C(F)(F)F)n3nc(C(=O)NCC4CCCO4)cc3N2)cc1 (stereo not drawn) returned HSD17B inhib 5.1%.
`CC(=O)OCC(=O)C1CCC2C3CCC4=CC(=O)CC[C@@]4(C)C3CC[C@]12C` (stereo partly drawn) gave HSD17B inhib 2.8%.
For O=C1CC(NCCN2CCOCC2)C(=O)N1Cc1ccc(N2CCCC2=O)cc1 (stereo not drawn) the results were HSD17B inhib -6.2%.
Screening CC1CC(=O)N(CC(=O)NCc2ccco2)c2ccccc2S1 (stereo not drawn) returned HSD17B inhib -1.8%.
For COc1ccc(NC(=O)C2CCN(S(=O)(=O)c3ccc(C)cc3)CC2)cc1OC the results were HSD17B inhib 3.5%.
Screening C/C(CCN1CCCc2nc(C)c(C)cc21)=N\O[C@@H](C)c1cc(-c2c(C)cc(C)cc2C)no1 returned HSD17B inhib -1.4%[11.4 µM].
`N#CCCCCn1c(-c2cncs2)nc2ccccc21` gave HSD17B inhib 25.1µM*.
C=CCN1C(=O)C2C(C(=O)NCc3ccccc3)C3(C)C=CC2(O3)C1C(=O)NC(C)(C)C (stereo not drawn) was read as HSD17B inhib 4.3%.
O=C(CSc1nc2scc(-c3ccco3)c2c(=O)n1-c1ccccc1)N1CCOCC1 was read as HSD17B inhib inconclusive.
`CCN(CC)c1ccc(NC(=O)CN2CCN(c3nc(C)cc(C)n3)CC2)cc1` gave HSD17B inhib -0.2%.
For O=C1CS/C(=N\c2ccccn2)N1C1CCCCC1 the results were HSD17B inhib -1.7%.
For COC(=O)c1c(N)nc(C)n1-c1ccc(OC)cc1 the results were HSD17B inhib 19.7%.
Screening COc1c(-c2coc3cc4c(cc3c2=O)CC(O)C(C)(C)O4)ccc2c1C=CC(C)(C)O2 (stereo not drawn) returned HSD17B inhib -9.7%.
Cc1ccccc1NC(=O)CSCCO was read as HSD17B inhib 3.7%.
O[C@H](COc1ccccc1)CN1CCCCC1 was read as HSD17B inhib 5.7%[11.4 µM].
C=CCNc1nc2c(c(=O)[nH]c(=O)n2C)n1CCCCC was read as HSD17B inhib 33.7%[activator].
For Cc1ccc(NC(=O)CSc2nnc(Cn3cnc4ccccc43)o2)cc1 the results were HSD17B inhib 8.2%.
For CCn1c(SCC(=O)NCc2cccs2)nnc1-c1ccncc1 the results were HSD17B inhib -0.3%.
For Cc1ccc(C)c2[nH]c(=O)c(CCNC(=O)C(C)(C)C)cc12 the results were HSD17B inhib inconclusive.
Screening COc1ccc2[nH]c(=O)c(CN(Cc3cccs3)S(=O)(=O)c3cccc4nsnc34)cc2c1 returned HSD17B inhib -2.2%.
O=S1(=O)C=C(N2CCCCC2)c2ccccc21 was read as HSD17B inhib -8.1%.
Screening CNC1C(O)[C@@H]2OC(O[C@@H]3C(O)C(O)C(N)C[C@H]3N)C(N)C[C@H]2O[C@H]1O[C@@H]1OC(CO)C(N)C(O)C1O (stereo partly drawn) returned HSD17B inhib -1.3%.
COc1ccc(Cl)cc1NC(=O)c1ccoc1C was read as HSD17B inhib -4.0%.
Screening Cc1ccc(-c2nnn(CC(=O)N(CC3CCCO3)C(C(=O)NC(C)(C)C)c3ccc(F)cc3)n2)o1 (stereo not drawn) returned HSD17B inhib -3.0%.
